Compound activity as filed in PubChem.
HSD17B inhib – HSD17B dehydrogenase inhibition; Q99714; 75,000 compounds, 7.6% hits; Potency, µM (highest dose often 57.1 µM), without a hit: top-dose activity change, negative = inhibition, usual class: inhibitors; recombinant HSD17B10, NADH fluorescence kinetic; many of its hits are not listed in these tables; AID 893; active = well fitted inhibition curve with a large enough effect; inconclusive = small, poorly fitted or top-dose-only effect; inactive = no such curve, though single readings can be large or run the other way;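 note: the protocol describes HADH2 (HSD17B10) and not the HSD17B4 of the title; nearly all actives have a fitted effect of over 70% in size; most hits overshoot -100% by far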
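Activity followed as NADH fluorescence increase (ex 360, em 450 nm) every 30 seconds for 4 min, using final 90 uM beta-hydroxybutyryl CoA and 1 mM NAD+. Recombinant His-tagged enzyme, 20 nM, pH 9.0 Tris buffer, 15 min compound preincubation.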
The depositor's hits bear a star; u = inconclusive; [ ] = remark or other dose. % is set by controls: 0 for no effect and ±100 for the full control effect; potency is the fitted concentration of half-maximal effect. Some of the compounds tested; rates above refer to the full screens.

SMILES | HSD17B inhib
Cc1ccc(S(=O)(=O)NCc2ccc(C(=O)N(C)CCC#N)cc2)cc1 | -3%
COc1ccccc1-n1c(C)nnc1SCC(=O)Nc1cccc(C(C)=O)c1 | -22%
CCCCCCn1c(N2CCN(c3ccccc3)CC2)nc2c1c(=O)[nH]c(=O)n2C | -2%
Cc1cccc(NC2(C(F)(F)F)N=C3SCCN3C2=O)n1 (stereo not drawn) | 9%
Cc1ccc(NC(=O)/C(CN(C)C)=N\O)cc1 | 9%
COC(=O)C1C(C(C)C)N(c2ccccc2)OC1(C)O (stereo not drawn) | -2%
CCS(=O)(=O)N1CCC(C(=O)Nc2cccc(C(C)=O)c2)CC1 | 6%
COc1ccc(CSc2nnc(C)n2N)cc1 | 5%
CCN(CC)S(=O)(=O)c1ccc(C2CNC(=O)C2)cc1 (stereo not drawn) | 2%
Cc1ccc(N2C(=O)c3ccccc3C2=O)cc1C | 6%
CCOC(=O)c1oc2ccc(CNCCO)c(Cl)c2c1C | 1%
CCn1c(SCC(=O)N2CCc3ccccc3C2)nc2c1c(=O)n(C)c(=O)n2C | 2%
COc1ccc(NC(=O)CSc2nnc(-c3ccccc3C)n2C)cc1 | 16%
Cc1oc(C2CC2)cc1C(=O)O | 13%
CC(C(=O)NCc1ccccc1)N(CCN1CCOCC1)C(=O)c1snc(C(N)=O)c1N (stereo not drawn) | u
Cc1nn(CCO)c(C)c1Oc1ccccc1O | 8%
CCNC(=O)NC(=O)CSc1cccc(C(F)(F)F)c1 | 4%
CC(C)Cn1c(SCC(=O)NC(=O)Nc2ccc3c(c2)OCCO3)nc2ccccc2c1=O | 16%
CC(=O)Nc1cc2c(nc1C)nc(C)n2Cc1ccc(Br)cc1 | -2%
CC(C)(C)c1nnc(NC(=O)C2CCN(c3ncccn3)CC2)s1 | -11%
C=CCN(C(=O)CNC(=O)c1ccco1)C(C(=O)NC1CCCCC1)c1ccccc1 (stereo not drawn) | -3%
COC(=O)c1ccc(C(=O)OC)c(NC(=O)CN2CCN(c3ccccc3OC)CC2)c1 | -8%
COc1cccc(CC(=O)Nc2nccs2)c1 | -5%
CCOc1ccc(OCC)c(NC(=O)C2CCCN(S(=O)(=O)c3cnc[nH]3)C2)c1 (stereo not drawn) | 3%
COCCn1nnnc1C(c1ccccn1)N1CCN(c2cc(C)ccc2C)CC1 (stereo not drawn) | -4%

By substructure: the entries above with an NH in an aromatic ring (two)
SMILES | HSD17B inhib
CCCCCCn1c(N2CCN(c3ccccc3)CC2)nc2c1c(=O)[nH]c(=O)n2C | -2%
CCOc1ccc(OCC)c(NC(=O)C2CCCN(S(=O)(=O)c3cnc[nH]3)C2)c1 (stereo not drawn) | 3%

The results go on:
SMILES | HSD17B inhib
O=C1CCC(=O)N1CCOP1(=O)COc2ccccc2OC1 | 10%
O=C(C1CCN(S(=O)(=O)c2ccccc2)CC1)N(CCc1ccccc1)Cc1ccco1 | -11%
Cc1cc(NC(=O)Cc2cccs2)no1 | 25µM*
COc1ccc(NC(=O)CSc2nnc(C3CC3)n2N)cc1 | 2%
Cc1ccc(C2(C)NC(=O)N(CC(=O)NC(=O)NCCC(C)C)C2=O)cc1 (stereo not drawn) | -5%
CN(C)c1nc2c(Br)c(Br)c(Br)c(Br)c2[nH]1 | -4%
c1ccc2c(c1)C(=NCC1CCCO1)NC2=NCC1CCCO1 (stereo not drawn) | 2%
O=C(OCCOc1ccccc1Cl)c1ccc(-n2cnnn2)cc1 | 12%
O=C(c1ccc(C#Cc2ccccc2)o1)N1CCN(c2ccccn2)CC1 | -28%
COc1ccc(Cl)cc1Nc1nc(C)cc(=O)[nH]1 | 4%
c1cncc(-c2ccc3ncnc(NC4CCNCC4)c3c2)c1 | -17%
COc1ccc(C(=O)CSc2nnc(CNc3nc(-c4ccccc4)cs3)n2C)cc1 | -4%
COC(=O)Nc1ccc(S(=O)(=O)N2CCN(c3ccc(F)cc3)CC2)cc1 | u
O=C(O)c1cc(S(=O)(=O)Nc2ccc3c(c2)OCCO3)c(Cl)cc1Cl | -1%
O=C(c1nc2nc(-c3ccccc3)cc(C(F)(F)F)n2n1)N1CCCCC1 | 32µM*
CCOC(=O)c1nn(-c2ccccc2)c(C(=O)OCC)c1N | 25µM*
Cc1cccc(N2C(=O)CC(N3CCN(Cc4ccc5c(c4)OCO5)CC3)C2=O)c1 (stereo not drawn) | -7%
CC(C)(Oc1ccc(Cl)cc1)C(=O)NC1CCSC1=O (stereo not drawn) | -20%
COC(=O)c1[nH]c2ccc(C)cc2c1NC(=O)CCN1CCN(C2CCCCC2)CC1 | 32µM*
O=c1[nH]c2ccc(S(=O)(=O)N3CCN(Cc4ccccc4)CC3)cc2[nH]c1=O | 32µM*
O=C(Nc1cccc(F)c1)N1CCC2(CC1)CCN(C(=O)c1cccc(F)c1)CC2 | 3%
Cc1ccc(S(=O)(=O)CCC(=O)OCC(=O)Nc2ncc(Cl)cc2Cl)cc1 | u
O=C(NCc1ccccc1)NC1(C(=O)Nc2ccc3c(c2)OCCO3)CCCCC1 | -2%
O=C(Cc1c(C(=O)O)[nH]c2ccc(Cl)cc12)Nc1ccc2c(c1)OCCO2 | 1%
Nc1cc(=O)[nH]c(SCc2cccc(Cl)c2)n1 | -3%
SMILES | HSD17B inhib
CCN(CC)C(=O)COc1cccc2ccccc12 | -22%
CCC(=O)[C@]12O[C@@]3(C4C(=O)OCCC41)N(CC)C(C)=C(C(=O)OC)C(c1ccccc1)N3C2=O (stereo partly drawn) | -2%[11.4 µM]
Cc1ccc2c(c1)N(CCC(=O)NCC1COc3ccccc3O1)C(=O)CO2 (stereo not drawn) | -2%
CCC(C)Sc1nc2c(c(=O)[nH]c(=O)n2C)n1CC(O)COc1cccc2ccccc12 (stereo not drawn) | -23%
CCC1SC(=NC(=O)c2ccc(Cl)c(Cl)c2)NC1=O (stereo not drawn) | -4%
Cc1csc(N2CCc3ccccc32)n1 | -1%
Nc1nc(SCC(=O)NCCCN2CCOCC2)nc2sc3c(c12)CCC3 | -2%
CC1CCCC(C)N1C(=O)CN1C(=O)C(C)(C)Oc2ccc(C(=O)NC3CCCCC3)cc21 (stereo not drawn) | 7%
Cc1ccc(-c2nc(N)n(S(C)(=O)=O)n2)cc1 | 8%
CCOC(=O)C1CCN(C(=O)c2ccc3c(c2)OCO3)CC1 | 12%
CCOC(=O)CSc1nnc(-c2ccc(S(=O)(=O)N3CCC(C)CC3)cc2)o1 | 8%
CC(C)c1cc(C(=O)Nc2ccc3c(c2)OCO3)no1 | -6%
COc1ccc(CC(=O)Nc2oc(-c3ccccc3)c(-c3ccccc3)c2C#N)cc1OC | 7.9µM*
O=C(CN1C(=O)c2ccccc2C1=O)OCC(=O)N1CCc2ccccc2C1 | -3%
COc1ccc(N2C(=O)C3CCCN3C2c2ccc(C)cc2)cc1Cl (stereo not drawn) | 5%
O=C(N1CCOCC1)N1CCN(c2nc(-c3ccccc3)cs2)CC1 | -8%
Cc1nn(Cc2ccc(Cl)cc2Cl)c(C)c1NC(=O)c1nc2n(n1)C(C(F)F)CC(C)N2 (stereo not drawn) | -2%
CC(=O)c1ccc(N2CCN(C(=O)CCS(=O)(=O)c3ccc(C)cc3)CC2)cc1 | -20%
CC(C)NC(=O)c1ccc2c(c1)N(CC(=O)N1CCOCC1)C(=O)C(C)(C)O2 | 6%
COC(=O)c1cccc(NC(=O)CSc2nnc(COc3ccccc3)n2C)c1 | 1%
O=C(CCCC(=O)N(CC(=O)NC1CCCCC1)CC1CCCO1)Nc1ccccn1 (stereo not drawn) | 6%
O=C(N1CCN(c2ccccn2)CC1)N1c2ccccc2Sc2ccccc21 | u
CC(=O)NC(C)c1nc2ccccc2n1Cc1ccccc1F (stereo not drawn) | 0%
COc1ccc([N+](=O)[O-])cc1N | -9%
CCCCC(=O)Nc1nn(C)c2nc3c(C)cccc3cc12 | 4%

Looked up by structure from the list above, 2 records:
SMILES | HSD17B inhib
COC(=O)c1cccc(NC(=O)CSc2nnc(COc3ccccc3)n2C)c1 | 1%
CC(C)c1cc(C(=O)Nc2ccc3c(c2)OCO3)no1 | -6%

Part of the list above, as tab-separated lines.
smiles	HSD17B inhib
Cc1ccc(C2(C)NC(=O)N(CC(=O)NC(=O)NCCC(C)C)C2=O)cc1 (stereo not drawn)	-5%
CC(C)(Oc1ccc(Cl)cc1)C(=O)NC1CCSC1=O (stereo not drawn)	-20%
Cc1ccc2c(c1)N(CCC(=O)NCC1COc3ccccc3O1)C(=O)CO2 (stereo not drawn)	-2%
CCOC(=O)c1oc2ccc(CNCCO)c(Cl)c2c1C	1%
Cc1cc(NC(=O)Cc2cccs2)no1	25µM*

(more compounds)
SMILES | HSD17B inhib
CC1=NOC2(C1)/C(=N/O)CCC/C2=N\O (stereo not drawn) | -5%
CCN1CCCC1CNC(=O)c1cc2c(C)nc3ccccc3c2o1 (stereo not drawn) | u
Cc1cc(=O)n2nc(N3CCC(C(=O)NCCC4=CCCCC4)CC3)sc2n1 | 7%
Cc1cc(C)cc(OCC(=O)NCC2CCCO2)c1 (stereo not drawn) | 5%
COc1cccc(OCC(O)CN2CC(C)CC(C)C2)c1 (stereo not drawn) | 4%
COC(=O)c1cccc(NC(=O)C(C)N2C(=O)c3ccccc3C2=O)c1 (stereo not drawn) | -8%
COc1ccc(O)c(-c2[nH]ncc2C(=O)c2ccccc2)c1 | 4%
O=C(CN1CCN(C2CCCCC2)CC1)Nc1ccccc1N1CCCCC1 | u
Cc1cc(C)n(-c2nc3c(c(=O)[nH]c(=O)n3C)n2CCc2ccccc2)n1 | -2%
Cc1cc2cc(CN(CCCN3CCOCC3)C(=O)NC3CCCCC3)c(=O)[nH]c2cc1C | u
CCCCc1ccc(C(=O)NC(C(=O)O)C(C)C)cc1 (stereo not drawn) | 10%
Cc1ccc(N(C(C)C(=O)O)S(=O)(=O)c2c(C)[nH]c(=O)[nH]c2=O)cc1 (stereo not drawn) | -4%
O=C(NCCc1ccncc1)c1ccccc1F | 0%
Cc1ccc(C(=O)CSc2nnc(COc3cccc4cccnc34)o2)cc1 | -6%
O=C(CSCC(=O)NC1CC1)Nc1ccccc1 | 4%
Cc1nc(C)c2c(c1C(F)(F)F)-c1ccccc1C2(F)F | 2%
Cc1nc2ccc(S(=O)(=O)NCC(=O)O)cc2s1 | -4%
CC12CC3OS(=O)OC3CC3C4C(C(OCc5ccccc5)C31)C42 (stereo not drawn) | 1%[11.4 µM]
C/C=C\C1=C(CO)C(=O)C2O[C@]2(CC=C(C)C)C1=O (stereo partly drawn) | -14%[11.4 µM]
COc1ccccc1CNC(=O)c1cc2c(s1)CS(=O)(=O)C2 | 7%
CCOC(=O)CN1CC23C=CC(O2)C(C(=O)Nc2ccc(F)cc2)C3C1=O (stereo not drawn) | -3%
O=C(NCCCN1CCc2ccccc2C1)C1CCN(S(=O)(=O)N2CCCC2)CC1 | 1%
COC(=O)c1ccc(C(c2c(N)n(CC(C)C)c(=O)[nH]c2=O)N2CCN(c3ccccc3)CC2)cc1 (stereo not drawn) | 4%
CCOC(=O)Cn1nc(-c2ccccc2)ccc1=O | 4%
Cc1cccc2cc(CN(CC3CCCO3)S(=O)(=O)c3ccccc3)c3nnnn3c12 (stereo not drawn) | 0%

Ordered by SMILES length (rising): 5 of the compounds above.
SMILES | HSD17B inhib
COc1cccc(OCC(O)CN2CC(C)CC(C)C2)c1 (stereo not drawn) | 4%
Cc1nc(C)c2c(c1C(F)(F)F)-c1ccccc1C2(F)F | 2%
O=C(CN1CCN(C2CCCCC2)CC1)Nc1ccccc1N1CCCCC1 | u
Cc1ccc(C(=O)CSc2nnc(COc3cccc4cccnc34)o2)cc1 | -6%
O=C(NCCCN1CCc2ccccc2C1)C1CCN(S(=O)(=O)N2CCCC2)CC1 | 1%

(listing goes on)
SMILES | HSD17B inhib
COc1cccc(C2C(C(=O)c3sc(C)nc3C)=C(O)C(=O)N2CCN(C)C)c1OC (stereo not drawn) | 8%
O=C(O)C1CCCCC1C(=O)NC1CCCCC1 (stereo not drawn) | -10%
Cn1c(NC(=O)c2ccc(F)c(F)c2)cc(=O)n(C)c1=O | -5%
CCOC(=O)C1CCN(S(=O)(=O)c2c(C)[nH]c(=O)[nH]c2=O)CC1 | 8%
COC(=O)NC(CC(C)=O)c1cccc(F)c1 (stereo not drawn) | 4%[11.4 µM]
CCc1ccc2[nH]c(=O)c(C(c3nnnn3Cc3ccccc3)N3CCOCC3)cc2c1 (stereo not drawn) | -23%
CCn1ncc2c(OCc3ccc(C#N)cc3)cc(C)nc21 | -6%
COc1ccc(S(=O)(=O)N2CCC(C(=O)Nc3cccc(C(C)=O)c3)CC2)cc1C | 9%
CC1(C)C(=O)CC[C@@]2(C)C1CC(O)[C@@]1(C)C3=CC(=O)OC(c4ccoc4)[C@]3(C)CCC21 (stereo partly drawn) | 5%
O=C1CC(N2CCN(c3ccccc3Cl)CC2)C(=O)N1c1ccc(F)cc1 (stereo not drawn) | -1%
CCn1nnnc1SCC(=O)N1c2ccccc2CCc2ccccc21 | 5%
CCOC(=O)Cn1c(CN2CCOCC2)nc2c1c(=O)[nH]c(=O)n2C | -5%
CCOc1ccc(C(=O)Nc2c3c(nn2-c2ccc(C)cc2)CS(=O)C3)cc1OCC (stereo not drawn) | 2%
CCn1c(=O)c2c(nc(SCC(=O)NCC3CCCO3)n2C)n(C)c1=O (stereo not drawn) | 15%
O=C(CSc1n[nH]c(-c2ccco2)n1)Nc1sc2c(c1C(=O)Nc1ccccc1)CCCC2 | -11%
CCC(C)N(C(=O)Cn1nnc2ccccc21)C(C(=O)NCc1ccco1)c1cccc(OC)c1 (stereo not drawn) | -3%
COCn1c2ccccc2c2nnc(C(=O)O)nc21 | 6%[11.4 µM]
CC(C)N(Cc1nc(-c2ccccc2)no1)S(=O)(=O)c1ccccc1 | 1%
O=c1cc(Nc2ccc3c(c2)OCCO3)[nH]c(=O)n1-c1ccc(Cl)cc1 | 3%
